MT1-MMP act inh – inhibitors of human MT1-MMP activation; P50281; HT1080 RFP-PRO-GFP cells, GFP/RFP ratio fluorescence, overnight; percent of plate control window, DMSO zero; GFP/RFP ratio change, % at 20 µM; hit rate 0.061% among 360,000;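 active means GFP/RFP ratio change of at least 30% with cell ATP level not reduced by more than half and red fluorescence within 50% of control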; further: strong numbers were not always called active
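Material – HT1080 RFP-PRO-GFP cells · Control set – DMSO wells and RFP-L50D-GFP cells · Incubation – overnight cell settling, then overnight compound exposure, 37 °C, 5% CO2 · Compound dosing – single-point 20 µM compound, 1% DMSO · Read-out – GFP/RFP fluorescence ratio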
HIV Env fusion – HIV envelope-mediated fusion inhibition; HeLa-JRFL Env/CEM21 cell fusion, luciferase; inhibition, % at 12.3 µM; hit rate 1.1% among 360,000;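 active means mean replicate inhibition score of at least 50 and every replicate individually at or above 50; inconclusive means only one of the two criteria met; inactive means mean below 50 and not all replicates reaching 50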;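 further: 0% = plate neutral controls and 100% = maraviroc near 300 nM; one replicate is shown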
eIF4H inh – inhibitors of RNA binding by human eIF4H. Q15056. eIF4H fluorescence polarization binding assay. inhibition, % at 35 µM. hit rate 0.94% among 290,000;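 active means 50% or more with normal probe brightness, or confirmed in later tests; inconclusive means above 50% with abnormal brightness, or retests that disagree; inactive means below 50% or failed in later tests; about a fifth of its hits are not listed in these tables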;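 further: calls also rest on retests at 20 µM and on dose response follow-up; 0% = protein and probe with vehicle and 100% = probe without protein; strong numbers were not always called active; many hits fall short of the cut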
Rce1 inhib – inhibitors of yeast Ras-converting enzyme; yeast membranes, quenched prenylated peptide cleavage fluorescence; calls only; hit rate 0.27% among 290,000;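 active means fall in fluorescence gain of 50% or more versus controls, with final raw signal at or below 3038400; inconclusive means same 50% fall but final raw signal above 3038400; inactive means fall in fluorescence gain under 50%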;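 further: plate controls were neutral control wells for no effect and wells lacking membranes for full effect; tested at 10 µM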
Target sequence (Q03530 whole entry, looked up): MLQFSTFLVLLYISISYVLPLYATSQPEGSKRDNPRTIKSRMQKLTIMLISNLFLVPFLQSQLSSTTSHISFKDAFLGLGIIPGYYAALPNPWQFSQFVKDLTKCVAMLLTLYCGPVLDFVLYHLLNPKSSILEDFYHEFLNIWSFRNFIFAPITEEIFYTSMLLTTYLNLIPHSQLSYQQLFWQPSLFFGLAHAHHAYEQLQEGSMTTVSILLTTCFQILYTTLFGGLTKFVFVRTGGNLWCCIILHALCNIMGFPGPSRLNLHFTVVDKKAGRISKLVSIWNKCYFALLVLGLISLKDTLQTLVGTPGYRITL
Yeast UUG start – modulators of start codon recognition fidelity in yeast; S. cerevisiae UUG-firefly luciferase reporter, luminescence/redox ratio; activity score, % at 18.7 µM; hit rate 0.13% among 350,000;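 active means replicate mean at a twofold rise or more, about +100% in these data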;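 further: firefly luciferase made from a UUG start codon reports start codon fidelity; reporter light over untreated wells divided by growth signal over untreated wells; some hits fall short of that in this replicate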
PABP FP inh – blocks human PABP binding to poly(A) RNA; P11940; fluorescence polarization; inhibition, % at 35 µM; hit rate 1% among 290,000; AID 2014;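 active means 50% or more with normal probe brightness, or confirmed in later tests; inconclusive means above 50% with abnormal brightness, or retests that disagree; inactive means below 50% or failed in later tests; about a fifth of its hits are not listed in these tables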;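 further: calls also rest on retests at 20 µM and on dose response follow-up; controls were probe without protein and protein plus probe with vehicle; some compounds called inactive have numbers as strong as hits; many hits fall short of the cut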
CSC inhib – cancer stem cell inhibition; cancer stem cell-like cells viability, luminescence; inhibition, % at 7.5 µM; hit rate 1.1% among 300,000; AID 2717;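 active means mean at 75% or more and at least half the replicates too; inconclusive means mean and replicates disagree; tested in HMLE shEcad cells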;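 further: 0% = median of negative and 100% = median of positive control wells; the first replicate is given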
eIF4H inh retest – second read-out of eIF4H inh, no call of its own (marks repeat the call); inhibition, %; compound at 20 µM; confirmation average;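 mean of two retest wells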
PABP FP inh retest – further read-out of PABP FP inh, marked with its call; inhibition, %; compound at 20 µM; confirmation repeats;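 mean of two retest wells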
MT1-MMP act inh RFP – recorded beside MT1-MMP act inh, whose call it bears; RFP signal change, %; measured here: RFP expression control read;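 0 = vehicle wells; hits needed this value within 50% of zero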
The depositor's hits bear a star; i = inactive; ? = inconclusive; / = no result given.

SMILES	MT1-MMP act inh	MT1-MMP act inh RFP	HIV Env fusion	eIF4H inh	Rce1 inhib	Yeast UUG start	PABP FP inh	CSC inhib	others
COc1ccc(C(=O)O)cc1S(=O)(=O)Nc1ccc(Oc2ccccc2)cc1	0	-1	/	/	/	-11	/	-19
Cc1ccc(C2NC(=S)NC3=C2C(=O)CC(C)(C)C3)cc1 (stereo not given)	5	5	6	1	i	/	-10	-12
O=C(CCn1c(=O)oc2ccccc21)N1CCc2ccccc21	1	2	-40	6	i	-10	-6	-10
Cc1ccc(CC(=O)Nc2ccncc2)cc1	2	-18	?	-6	i	-4	-6	/
CN(C)CCOC(=O)CC12CC3CC(C1)CC(CC(=O)OCCN(C)C)(C3)C2	1	-4	19	5	i	-5	16	-4
COC(=O)c1cc(C(=O)OCC(=O)NC2CCS(=O)(=O)C2)cc([N+](=O)[O-])c1 (stereo not given)	1	5	-13	2	i	/	-8	-3
O=C(O)c1ccc(Nc2nc(-c3cccnc3)cs2)cc1O	4	0	11	8	i	5	2	-5
Cc1cc(C)cc(N2C(=O)CC(n3ccnc3)C2=O)c1 (stereo not given)	2	3	/	1	i	-14	5	-7
O=C(O)CC1SC(=Nc2cccc(C(F)(F)F)c2)NC1=O (stereo not given)	3	2	/	4	i	-7	15	-8
O=c1c([N+](=O)[O-])c(N2CCOCC2)c2ccccc2n1Cc1ccccc1	-1	-2	3	0	i	/	-1	/
O=C(N/N=C/c1cccc2ccccc12)c1cc(C2CC2)[nH]n1	4	0	-16	4	i	5	7	-9
CCCOc1ccc(-c2c(C(=O)N/N=C/c3ccccc3OCC)nnn2-c2nonc2N)cc1	-6	1	-5	/	i	-5	/	-3
CCCCCC1CC(CC(=O)O)C(=O)O1 (stereo not given)	-2	4	-16	-4	i	-1	12	/
Cc1nc(-c2ccc(O)c(O)c2)cs1	5	-3	/	-4	i	-17	-4	5
Cn1ccsc1=NC(=O)c1cccc(C#N)c1	1	2	-35	9	i	-13	5	1
CC(=O)C1=C(C)OC(N)=C(C#N)C1c1ccncc1 (stereo not given)	-4	3	/	11	i	-13	13	-12
CN(C(=S)Nc1cccnc1)c1ccc(O)cc1	6	12	-6	87	i	-18	1	-13	eIF4H inh retest=-6;PABP FP inh retest=7
N#C/C(=C\c1ccc(-c2ccccc2C(=O)O)o1)c1nc2ccccc2[nH]1	-131	4	-2	79	i	11	49*	1	eIF4H inh retest=4;PABP FP inh retest=98*
Cc1c(C(=O)OCC(=O)N2CC(C)OC(C)C2)oc2ccc(Br)cc12 (stereo not given)	4	2	9	-8	i	-14	3	-14
O=C(CSc1nc2c(cnn2-c2ccccc2)c(=O)[nH]1)NC1CCS(=O)(=O)C1 (stereo not given)	3	1	15	7	i	/	7	-17
N#CC1=C(N)N(c2ccccc2)C2=C(C(=O)CCC2)C1c1ccsc1 (stereo not given)	-5	9	-47	13	i	-14	25	10
COC(=O)c1nonc1NCn1nnc2ccccc21	0	-1	/	-10	i	-6	-9	0
COc1ccccc1OCC(=O)Nc1sc2c(c1C(N)=O)CCC2	4	-4	-61	/	/	13	/	1
CCOc1ccc(Br)cc1S(=O)(=O)Nc1ccc(C(=O)OCC(=O)Nc2ccc(C#N)cc2)cc1	-6	-1	-8	-5	i	/	-8	11
CC(C)CCNC(=O)c1ccc(OC2CCN(S(=O)(=O)N(C)C)CC2)cc1	3	-11	-8	-3	i	-7	-8	2
CC(C)(C)C1CCC(OC(=O)C[N+]2(C)CCCCC2)CC1 (stereo not given)	-1	-4	-11	-12	i	/	2	58
O=C(N/N=C/c1ccc(Cl)c([N+](=O)[O-])c1)c1ccc2c(c1)OCCO2	4	1	4	/	/	-18	/	/
COc1cc(NC(=O)c2cnn3c(C(F)F)cc(C4CC4)nc23)c(OC)cc1Cl	6	3	3	-2	i	/	-12	1
NC(=O)C(CCC(=O)c1ccc(Br)cc1)S(=O)(=O)c1ccccc1 (stereo not given)	1	3	5	-3	i	/	-12	-2
CC(=O)Nc1ccc2nc(CN3CCN(CC(C)C)C(CCO)C3)ccc2c1 (stereo not given)	2	3	7	0	i	3	-9	-14
CCC(NS(=O)(=O)c1ccc(OC)cc1)C(=O)NCCc1ccccc1 (stereo not given)	2	3	-14	-5	i	-2	-8	-8
O=C(c1ccc2c(c1)OCO2)N1CCN(S(=O)(=O)N2CCCCC2)CC1	-2	5	4	-4	i	-8	-7	1
Cc1cccc(NS(=O)(=O)c2cc(C(=O)OCC(=O)Nc3cc(C)on3)ccc2C)c1	3	9	-22	-19	i	9	-3	22
Cc1ccc(F)c(CNC(=O)C2(C)CCCN2C(=O)C(C)C)c1F (stereo not given)	2	4	-3	/	/	-8	/	/
CC(Sc1nnc(-c2ccco2)o1)C(=O)NCCC1=CCCCC1 (stereo not given)	-1	5	1	-3	i	/	-3	/
c1coc(CNc2ncnc3ccccc23)c1	-11	-28	/	-12	i	-14	-6	-6
CC(C)n1c(CNC(=O)c2ccccc2F)nnc1SCC(=O)NC1CCCCC1	-2	-1	-7	/	/	-5	/	/
COc1cccc(/C=N/NC(=O)C(=O)N/N=C/c2cccc(OC)c2O)c1O	12	5	10	20	/	/	-13	/
CC(C(=O)Nc1ccc(S(=O)(=O)N2CCCC2)cc1)N1CCCC(C(N)=O)C1 (stereo not given)	-3	-5	-27	/	/	-19	/	/
Cc1csc(C(=O)NN)c1N(C)C	7	-3	1	-11	i	/	3	-4
CC(c1nccs1)N(C)c1nc2nonc2nc1NC1CC1 (stereo not given)	-6	2	7	?	i	7	?	-15
O=C(NCCNC(=O)c1ccccc1F)c1ccco1	-2	0	-6	-9	i	/	6	-6
O=C(CCC(=O)c1ccc(F)cc1)Nc1cccnc1	-1	2	/	6	i	-17	-8	-14
CCOC(=O)C1(Cc2ccc(Cl)cc2)CCN(C(=O)CCc2cnccn2)CC1	5	-1	-9	-4	i	3	9	6
CCN1C(=O)CSc2ccc(C(=O)NC3CCCCC3)cc21	1	2	-65	5	i	/	0	1
Cc1cc(C)n(CCC(=O)N2CCN(S(=O)(=O)c3ccc(C)c(C)c3)CC2)n1	1	3	12	-4	i	-15	-8	-9
O=C(Nc1ccc(CN2CCS(=O)(=O)CC2)cc1)c1ccc(C(F)(F)F)cc1	-2	-30	76*	-2	i	-5	3	-2
CSc1nsc(NC(=O)Cc2ccccc2)n1	4	-7	/	-14	i	-4	12	-7
COc1ccc(NC(=O)Nc2nnc(-c3cccs3)s2)cc1	2	-9	-51	-1	i	/	-1	-8
CCCn1c(N)c(C(=O)CSc2nc(C)cs2)c(=O)n(C)c1=O	4	-9	/	9	i	/	-1	-13
More structures follow:
SMILES	MT1-MMP act inh	MT1-MMP act inh RFP	HIV Env fusion	eIF4H inh	Rce1 inhib	Yeast UUG start	PABP FP inh	CSC inhib	others
COc1cc(/C=C/c2nc3ccccc3c(=O)[nH]2)ccc1O	-6	0	-182	/	/	-3	/	/
COc1ccc(NS(=O)(=O)c2cc(N=Nc3c(O)[nH]c(=O)[nH]c3=O)ccc2Cl)cc1	0	2	/	/	/	2	/	-8
O=C(NCc1ccccc1)C1CC(=O)N(c2ccc(OCC(=O)N3CCCC3)cc2)C1 (stereo not given)	0	2	/	5	i	-2	2	-11
COc1ccc(C2NC(=O)CS2)cc1 (stereo not given)	-7	-3	/	2	i	-25	15	2
CCOC(=O)CCCCCC(=O)Nc1ccc2c(c1)C(=O)N([C@H](C)CO)C[C@@H](C)[C@H](CN(C)Cc1ccc3c(c1)OCO3)O2	-3	3	8	/	/	-11	/	-17
CC(=O)OC1c2c(ccc3ccc(=O)oc23)OC(C)(C)C1OC(=O)CC(C)C (stereo not given)	-5	-2	-51	-3	i	2	-10	/
COc1ccccc1CNS(=O)(=O)c1cccs1	2	5	-59	-4	i	-10	-6	-9
Cc1ccc(C(=O)NCc2nnc(SCC(=O)Nc3ccccc3)n2C)cc1	2	1	17	-7	i	-18	-9	-8
CCOc1ccc2nc(NC(=O)c3ccc(S(=O)(=O)N4CCOCC4)cc3)sc2c1	5	-2	25	-16	i	7	-2	3
CN(c1ccccc1)S(=O)(=O)c1cccc(NC(=O)Cc2c(F)cccc2Cl)c1	1	-4	5	-2	i	-29	2	7
C[C@@H](NC(=O)c1cc2c([nH]c3ccccc32)c(-c2ccccc2)n1)C(=O)O	3	5	-4	-8	i	6	11	-3
COc1ccc(COc2cc(-c3cccc(OC)c3)nc3ccc(NC(=O)c4cccnc4)cc23)cc1	-10	-3	10	-2	i	-17	6	38
c1ccn2cc(C34CC5CC(CC(C5)C3)C4)nc2c1	0	1	8	-5	i	/	-6	56
Cc1ccc2[nH]c(=O)c(CN(Cc3ccc4c(c3)OCO4)Cc3nnnn3Cc3ccco3)cc2c1	-11	6	/	-10	i	-10	9	6
c1ccc(COc2ccc(Oc3nc(N4CCCCC4)nc(N4CCOCC4)n3)nn2)cc1	1	-3	/	-6	i	22	-10	-5
Clc1ccc(-n2nnnc2SCc2cn3ccccc3n2)cc1	-3	-1	/	10	i	-17	4	/
On1cnnc1-c1ccccc1	3	5	/	1	i	-17	3	-6
CCCCCNc1nc(NCCCO)c(C#N)c2c1CN(C)CC2	-7	2	/	127	i	/	120	-9	eIF4H inh retest=-4;PABP FP inh retest=9
Cc1cccc(NC(=S)N2CCn3cccc3C2c2cccnc2)c1 (stereo not given)	1	2	-10	4	i	/	-18	-7
Cc1cc(F)ccc1NC(=O)CCc1ccc(S(=O)(=O)N2CCOCC2)cc1	0	-1	-4	/	/	-3	/	-7

Molecules listed so far with a CF3 group (two):
SMILES	MT1-MMP act inh	MT1-MMP act inh RFP	HIV Env fusion	eIF4H inh	Rce1 inhib	Yeast UUG start	PABP FP inh	CSC inhib	others
O=C(O)CC1SC(=Nc2cccc(C(F)(F)F)c2)NC1=O (stereo not given)	3	2	/	4	i	-7	15	-8
O=C(Nc1ccc(CN2CCS(=O)(=O)CC2)cc1)c1ccc(C(F)(F)F)cc1	-2	-30	76*	-2	i	-5	3	-2

Additional entries follow.
SMILES	MT1-MMP act inh	MT1-MMP act inh RFP	HIV Env fusion	eIF4H inh	Rce1 inhib	Yeast UUG start	PABP FP inh	CSC inhib	others
C/C(=N/NC(=O)c1ccco1)c1ccc(NC(=O)c2ccc(Br)o2)cc1	0	-1	-17	-9	i	-10	-1	/
N#Cc1c(-c2ccccc2F)cc(C2CC2)nc1SCC(=O)c1cccs1	-90	-2	0	-3	i	-30	-17	/
COc1cnc(-c2ccccc2)[nH]c1=O	-1	2	-14	1	i	-15	-2	-7
CC(NC(=O)/C(C#N)=C/c1ccc(OCC(=O)O)cc1)c1ccccc1 (stereo not given)	0	-1	1	16	i	2	64*	-2	eIF4H inh retest=33;PABP FP inh retest=88*
C=CCNc1nc(N)c(C(=C(C#N)C#N)c2ccc(Br)cc2)s1	0	-6	3	-4	i	-8	13	23
CC(NCc1ccccc1)c1ccccc1O (stereo not given)	0	5	-2	-5	i	/	-2	-12
COc1ccc(CC(=O)OC(C)CN2CCCCC2)cc1 (stereo not given)	-1	3	-23	3	i	/	0	8
Cc1nc(CC(=O)Nc2nccs2)cs1	3	1	8	-1	i	-9	-9	-1
Cn1cc(C(=O)NS(=O)(=O)Nc2ccc(Br)cc2)c2ccccc21	2	2	1	3	i	-3	-4	57

High-throughput results from PubChem BioAssay.
